Screens: PubChem BioAssay, ICCB-Longwood Screening Facility, Harvard Medical School
PV pol inh – poliovirus RNA polymerase inhibition | poliovirus polymerase elongation, fluorescence polarization; hits give low values | % elongation, % (compound at 16.7 µg/mL) | 150,000 compounds, 0.66% hits | AID 588519; in the data active means % elongation below about 90%; further: some results filed as inactive read as strong as hits
Target sequence (P03300 1749-2209 limits assumed): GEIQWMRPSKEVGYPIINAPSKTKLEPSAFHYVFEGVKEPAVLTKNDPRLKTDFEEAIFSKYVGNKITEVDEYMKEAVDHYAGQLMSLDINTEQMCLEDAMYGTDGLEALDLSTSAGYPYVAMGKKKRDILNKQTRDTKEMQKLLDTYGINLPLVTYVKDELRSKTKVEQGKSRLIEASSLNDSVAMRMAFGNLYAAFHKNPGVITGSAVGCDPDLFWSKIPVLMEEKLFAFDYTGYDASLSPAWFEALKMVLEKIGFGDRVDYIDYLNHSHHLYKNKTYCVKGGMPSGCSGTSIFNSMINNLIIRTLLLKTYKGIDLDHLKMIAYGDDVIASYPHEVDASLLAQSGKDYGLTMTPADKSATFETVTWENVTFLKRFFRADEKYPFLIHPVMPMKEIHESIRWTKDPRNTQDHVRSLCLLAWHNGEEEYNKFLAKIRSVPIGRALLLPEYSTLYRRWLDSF
PV pol inh intensity – also measured in PV pol inh; calls as there; % elongation; measured here: total intensity read-out; formula for this scale not given here;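 total fluorescence in place of polarization; lower means less elongation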
* hit, by the source's call. A portion of the library; count on the stated rates, not on these rows.

Fields – PV pol inh intensity	PV pol inh
CCc1ccccc1NC(=O)CSC1=Nc2ccccc2C2=NC(Cc3ccccc3)C(=O)N12 (stereo not given)
    104.0	96.0
CCOCCCn1c(SCC(=O)NCCCOC)nc2c(sc3ccccc32)c1=O
    100.0	104.0
COc1cc(Cl)c(C)cc1NC(=O)CSc1cc(-c2ccccc2)nc(C)n1
    107.0	107.0
Cc1ccc2oc(=O)c(S(=O)(=O)c3ccc(C(C)(C)C)cc3)cc2c1
    110.0	107.0
COc1ccc(S(=O)(=O)N2CCC(C(=O)Nc3cc(C(F)(F)F)ccc3Cl)CC2)cc1
    106.0	104.0
O=C(Cn1c(=O)c2cccn2c2ccc(F)cc21)N1CCN(c2ccccc2)CC1
    113.0	109.0
COCCCn1c(=N)c(S(=O)(=O)c2ccccc2)cc2c(=O)n3cccc(C)c3nc21
    111.0	109.0
O=C(Nc1noc2ccccc12)c1cccc(F)c1
    116.0	123.0
Cc1nn(CC(=O)NCCc2ccccc2)c(=O)c2nn(-c3ccccc3)c(C)c12
    108.0	112.0
CCOC(=O)c1ccc(NC2=CC(c3ccc(F)cc3)N(c3ccc(C(=O)OCC)cc3)C2=O)cc1 (stereo not given)
    107.0	106.0
Cc1ccc(-c2nc(S(=O)(=O)c3ccccc3)c(SCC(=O)NC3CCCCC3)o2)cc1
    106.0	103.0
CCOc1ccc(CNC(=O)c2cnc3sc(N(CC)CC)nn3c2=O)cc1OC
    107.0	105.0
CCc1ccc(-n2c(SC(CC)C(=O)N(CC)CC)nc3n[nH]c(C)c3c2=N)cc1 (stereo not given)
    91.0	97.0
O=C(CCn1cnc2onc(-c3ccc(F)cc3)c2c1=O)Nc1ccc(F)c(Cl)c1
    111.0	113.0
Cc1ccc2nc(/C(C#N)=C/c3cccc(Br)c3)[nH]c2c1
    117.0	110.0
COc1ccc(N2CC(NC(=O)C3CCCCC3)CC2=O)cc1OC (stereo not given)
    108.0	105.0
Cc1nc(-c2ccc(S(=O)(=O)Nc3ccc(C#N)cc3)cc2)co1
    97.0	103.0
COc1ccccc1NC(=O)C1=C(C)Nc2nc(SCC(=O)c3ccc(C)cc3)nn2C1c1ccc(F)cc1 (stereo not given)
    77.0	87.0
Cc1ccc(NCc2cccn2-c2nnc(N3CCC(C(=O)NCc4ccc(OC(C)C)cc4)CC3)s2)cc1
    110.0	109.0
O=C(Cn1cnc(S(=O)(=O)N2CCCC2)c1)Nc1ccccc1
    101.0	105.0
CCOc1ccc(-c2nonc2NC(=O)c2ccco2)cc1
    103.0	97.0
COc1ccccc1-c1cc2nc(C)c(CCC(=O)NCc3cccc(Cl)c3)c(C)n2n1
    106.0	104.0
Cc1nn2c(=O)cc(COC(=O)c3ccc(NC(=O)COc4ccccc4F)cc3)nc2s1
    105.0	112.0
Cc1ccc(Sc2c(C)nn(C(C)(C)C)c2OC(=O)CC(C)C)cc1
    109.0	107.0
Cn1c(SCc2cccc(F)c2)nc2c([nH]c3ccccc32)c1=O
    99.0	102.0
COc1ccc(Cn2c(C(=O)O)c(CNCc3cccs3)c3ccc(C)cc32)cc1
    108.0	104.0
COCCNC(=O)CSc1c2c(nc3cc(Cl)ccc13)CCCC2
    102.0	98.0
COc1cccc(/C=C(\C#N)c2nc3ccccc3c(=O)[nH]2)c1OC
    105.0	103.0
COc1cc(NC(=O)C2=CC(c3ccc(F)cc3)=NS(=O)(=O)N2C)cc(OC)c1OC
    111.0	110.0
CSc1cccc(NC(=O)C2CCN(C(=O)c3cnn(-c4ccccc4)c3-n3cccc3)CC2)c1
    103.0	103.0
COc1cc2[nH]c(=O)n(CCCC(=O)N3CCN(c4cccc(C(F)(F)F)c4)CC3)c(=O)c2cc1OC
    106.0	106.0
CSc1ccc(CCNC(=O)c2ccc3c(c2)c(C)c(C)n3Cc2ccc(F)cc2)cc1
    109.0	104.0
COc1ccccc1CNC(=O)CCCCn1c(=O)c2ccccc2n(Cc2ccccc2C)c1=O
    105.0	105.0
Cc1ccc(CNC(=O)C2CCN(Cc3nc(-c4cccc(Br)c4)oc3C)CC2)cc1
    114.0	110.0
Cc1ccc(NC(=O)CN2C(=O)CSc3ccc(S(=O)(=O)N4CCCC4)cc32)cc1F
    115.0	123.0
CCOc1ccc(NC(=O)CSc2nc(C)c(C(=O)Nc3ccccc3)c(-c3ccc(Cl)cc3)c2C#N)cc1
    112.0	112.0
Cc1ccc(NC(=O)/C(C#N)=C/c2cc(C)n(-c3ccc(F)cc3)c2C)cc1C
    112.0	107.0
CCOc1ccc(N(CC)S(=O)(=O)N2CCCC(C(=O)NCCc3ccccc3OC)C2)cc1 (stereo not given)
    105.0	104.0
COc1ccc(C(=O)Oc2c(Sc3ccccc3)c(C)nn2-c2ccccc2)c(OC)c1
    104.0	105.0
CC(C)(C)c1ccc(S(=O)(=O)N2CCN(Cc3noc(CCC(=O)N4CCCCC4)n3)CC2)cc1
    109.0	104.0
CCN(CC)c1ccc(-c2nc(-c3ccccn3)no2)cc1[N+](=O)[O-]
    109.0	106.0
CN1CCN(C(=O)C(=O)Nc2c3c(nn2-c2cccc(Cl)c2)CSC3)CC1
    98.0	111.0
Brc1ccc(CN2CCc3nc(Nc4ccccc4)ncc3C2)s1
    96.0	103.0
CCOc1ccc(CCNC(=O)CSCc2nc(-c3cccc(C)c3)oc2C)cc1OCC
    110.0	107.0
Cc1ccc(/C=C(\C#N)C(=O)Nc2cccc(Br)c2)o1
    114.0	107.0
COc1cccc(N2CC(NC(=O)c3cccs3)CC2=O)c1 (stereo not given)
    105.0	101.0
CC(C)Cn1c(SCc2cccc(F)c2)nc2ccsc2c1=O
    103.0	98.0
O=C(NCc1ccc(Cl)cc1)C1(c2cccs2)CCOCC1
    108.0	108.0
O=C(NCc1ccccc1)C(=O)NCC(c1ccco1)S(=O)(=O)c1ccc(Cl)cc1 (stereo not given)
    107.0	109.0
Cc1ccc(C)c(CN2C(=O)N(c3cc(Cl)ccc3C)S(=O)(=O)c3ccccc32)c1
    115.0	111.0
CC1CCN(S(=O)(=O)c2ccc3c(c2)N(CC(=O)NC(C)C)C(=O)CO3)CC1
    100.0	109.0
CC1=Nc2cc(C(=O)NC3CCCC3)ccc2Sc2ccc(Cl)cc21
    107.0	108.0
COc1ccc(N2CCN(C(=O)c3ccc(CS(=O)(=O)c4ccc(Br)cc4)o3)CC2)cc1
    104.0	104.0
CC(C)c1ccc(NC(=O)c2ccc(Cn3nc(N4CCN(c5ccccc5)CC4)ccc3=O)o2)cc1
    104.0	100.0
COc1cccc(CNC(=O)CN(c2ccc(C)cc2)S(=O)(=O)N(C)C)c1OC
    115.0	106.0
O=C(c1cccc([N+](=O)[O-])c1)N1c2nc(-c3ccco3)nn2C2(CCCCC2)[C@@H]2CCCC[C@@H]21
    111.0	107.0
CCn1c(=O)n(CC)c2cc(N3CCCC3)c(NC(=O)Nc3cc(C)cc(C)c3)cc21
    106.0	112.0
Cc1ccc2nc(-c3ccsc3)c(Nc3ccc(C(C)C)cc3)n2c1
    109.0	112.0
O=C(NCCS(=O)(=O)N1CCN(c2ccc(F)cc2)CC1)C1CC(=O)N(c2ccccc2)C1 (stereo not given)
    111.0	106.0
Cc1cc(C)n2nc(-c3ccc(Cl)cc3)nc2n1
    118.0	118.0

Additional results follow.
Fields – PV pol inh intensity	PV pol inh
Cc1ccc(NC(=O)CN2C(=O)c3cccnc3Sc3ccccc32)c(Br)c1
    111.0	107.0
O=c1c2ccccc2nc(-c2ccc(Cl)cc2)n1CCCCOc1ccc(F)cc1
    107.0	105.0
Cc1ccnc2nc(NC(=O)c3ccccc3Cl)nn12
    104.0	104.0
CC(=O)Nc1ccc(Nc2nc3ccc(C)cc3n3nnnc23)cc1
    112.0	113.0
COc1ccccc1CNC(=O)C(=O)NCC(c1ccco1)S(=O)(=O)c1ccc(F)cc1 (stereo not given)
    114.0	112.0
O=C(NCc1ccc(F)cc1)c1c(O)nc2ccccn2c1=O
    114.0	114.0
CCOc1ccc(C(=O)c2oc3ccccc3c2NC(=O)c2cc(-c3ccccc3)on2)cc1
    115.0	107.0
O=C(C1CCN(S(=O)(=O)c2cccc3nonc23)CC1)N1CCN(c2cccc(Cl)c2)CC1
    107.0	109.0
COC(=O)c1cccc(CN2C(=O)SC(Nc3ccccc3C)C2=O)c1 (stereo not given)
    98.0	105.0
Cc1ccc(CCNC(=O)c2ccc3nc(N4CCC(C)CC4)sc3c2)cc1
    106.0	105.0
COc1ccc(NC(=O)CN(C)S(=O)(=O)c2ccc3c(c2)CCCN3C(C)=O)cc1
    100.0	105.0
CCOc1ccccc1CNC(=O)Nc1cn(CC(C)C)c(=O)c2ccccc12
    48.0*	28.0*
O=C(Nc1ccc(Br)cc1)c1ccc(Br)c(S(=O)(=O)N2CCCCC2)c1
    108.0	103.0
Cc1ccc(Cl)cc1N1CCN(C(=O)c2ccc(CS(=O)(=O)c3ccc(Br)cc3)o2)CC1
    96.0	103.0
CCc1ccc(-c2nc3c(c(SCc4ccccc4F)n2)Cc2c(CO)cnc(C)c2O3)cc1
    108.0	106.0
COc1cccc2c1Oc1ncccc1N(C(=O)CCC(=O)NCCC(C)C)C2
    111.0	113.0
Cc1ccc(Sc2ccc(N3CCC(C(=O)Nc4cc(C)cc(C)c4)CC3)nn2)cc1
    110.0	106.0
CCOC(=O)c1ccccc1NC(=O)CCc1c(C)nc2ncnn2c1C
    111.0	113.0
Cc1ccc(-c2nnn3c2nc(NCc2ccc4c(c2)OCO4)c2ccccc23)cc1
    111.0	104.0
COc1ccc2nc3sc(C(=O)N4CCN(c5ccc(F)cc5)CC4)cc3cc2c1
    117.0	112.0
CCOc1ccccc1NC(=O)CSC1=Nc2ccccc2C2=NC(CC(=O)NCc3ccc4c(c3)OCO4)C(=O)N12 (stereo not given)
    110.0	115.0
COc1ccc2c(CNCCc3ccco3)c(C(=O)O)n(Cc3ccccc3)c2c1
    106.0	114.0
Cc1oc(-c2cccc(Cl)c2)nc1CSc1nncn2c1cc1occc12
    100.0	101.0
COc1cc(NS(=O)(=O)c2ccc(NC(=O)c3ccccc3C(=O)O)cc2)nc(OC)n1
    105.0	103.0
Cc1ccc(N(CC(=O)N2CCN(c3ccccc3)CC2)S(=O)(=O)c2c(C)noc2C)cc1
    107.0	108.0
COCCNC(=O)CCn1c(=O)c2cc(OC)c(OC)cc2n(CC(=O)Nc2ccc(Cl)cc2F)c1=O
    105.0	100.0
COc1ccc(C2=Nc3ccc(F)cc3NC(c3cccc(C(F)(F)F)c3)=N2)cc1
    112.0	110.0
Cc1ccc(-n2nc(C(=O)N3CCN(c4cccc(C(F)(F)F)c4)CC3)c(=O)n(C)c2=O)cc1
    110.0	110.0
O=c1oc2ccc(Cl)cc2cc1-c1nc(-c2cccs2)no1
    120.0	116.0
Cc1cccc(NC(=O)COc2cccc3c(=O)n(C)ccc23)c1C
    107.0	108.0

Compound profiles (already shown). Order of values: PV pol inh intensity, PV pol inh
`Cc1ccc(CCNC(=O)c2ccc3nc(N4CCC(C)CC4)sc3c2)cc1` across the screens: 106.0, 105.0
`COc1ccc2c(CNCCc3ccco3)c(C(=O)O)n(Cc3ccccc3)c2c1` across the screens: 106.0, 114.0
`O=c1oc2ccc(Cl)cc2cc1-c1nc(-c2cccs2)no1` across the screens: 120.0, 116.0

Quoted at random: two entries already listed
Fields – PV pol inh intensity	PV pol inh
O=C(Nc1ccc(Br)cc1)c1ccc(Br)c(S(=O)(=O)N2CCCCC2)c1
    108.0	103.0
O=c1c2ccccc2nc(-c2ccc(Cl)cc2)n1CCCCOc1ccc(F)cc1
    107.0	105.0

The listing picks up, repeating the five entries before the break.
Fields – PV pol inh intensity	PV pol inh
COCCNC(=O)CCn1c(=O)c2cc(OC)c(OC)cc2n(CC(=O)Nc2ccc(Cl)cc2F)c1=O
    105.0	100.0
COc1ccc(C2=Nc3ccc(F)cc3NC(c3cccc(C(F)(F)F)c3)=N2)cc1
    112.0	110.0
Cc1ccc(-n2nc(C(=O)N3CCN(c4cccc(C(F)(F)F)c4)CC3)c(=O)n(C)c2=O)cc1
    110.0	110.0
O=c1oc2ccc(Cl)cc2cc1-c1nc(-c2cccs2)no1
    120.0	116.0
Cc1cccc(NC(=O)COc2cccc3c(=O)n(C)ccc23)c1C
    107.0	108.0
Cc1ccc(C)c(N2CCN(S(=O)(=O)c3c(C)nc4sccn4c3=O)CC2)c1
    107.0	104.0
Cc1ccc(NC(=O)CSc2nc(-c3ccco3)cc(C(F)(F)F)n2)cc1
    104.0	106.0
CCc1ccccc1NC(=O)Cn1c(=O)n(-c2ccc(C)cc2)c(=O)c2cc(OC)c(OC)cc21
    111.0	111.0
Cc1ccc(-c2noc(C(C)NS(=O)(=O)c3ccc(C)cc3)n2)cc1 (stereo not given)
    109.0	102.0
COc1ccc(NC(=O)c2c(NCc3cccc(F)c3)sc3c2CCCC3)c(OC)c1
    109.0	104.0
CCn1c2ccccc2c2nnc(SCC(=O)O)nc21
    106.0	102.0
CCS(=O)(=O)c1nc(S(=O)(=O)c2ccc(C)cc2)c(NC(C)c2ccccc2)s1 (stereo not given)
    103.0	106.0
CCOC(=O)c1ccc(NC(=O)CCS(=O)(=O)c2ccc3c(c2)oc(=O)n3C)cc1
    102.0	108.0
CCOc1ccc(CN2C(=O)c3ccccc3C2C(=O)NCCc2ccc(OC)c(OC)c2)cc1 (stereo not given)
    116.0	113.0
CC(NC(=O)CSc1n[nH]c(-c2ccccc2Cl)n1)c1nc2ccccc2[nH]1 (stereo not given)
    109.0	109.0
COc1ccc(C(=O)Nc2ccc(-c3nnc4n3CCCCC4)cc2)cc1OC
    111.0	105.0
CC(C)(C)c1ccc(C2Sc3ccccc3NC3=C2C(=O)c2ccccc23)cc1 (stereo not given)
    112.0	110.0
COc1ccc(C(=O)c2oc3ccccc3c2NC(=O)COc2cccc(C)c2C)cc1
    114.0	109.0
COc1cccc(NC(=O)CC2Nc3cc(C)c(C)cc3NC2=O)c1 (stereo not given)
    112.0	109.0
